eIF4H inh = human eIF4H binding inhibitors, primary screen, translation initiation inhibitor project, biochemical, uHTS, fluorescence polarization | eIF4H fluorescence polarization binding assay | actives 0.94% (n = 290,000) | Eukaryotic translation initiation factor 4H (Homo sapiens), Q15056 | inhibition, % at 35 µM;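 active = 50% or more with normal probe brightness, or confirmed in later tests; inconclusive = above 50% with abnormal brightness, or retests that disagree; inactive = below 50% or failed in later tests; about a fifth of its hits are not listed in these tables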;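 note: calls also rest on retests at 20 µM and on dose response follow-up; 0% = protein and probe with vehicle and 100% = probe without protein; strong numbers were not always called active; many hits fall short of the cut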
Rce1 inhib = yeast Rce1p protease inhibitors, primary screen, biochemical, fluorescence, cell-free homogeneous | calls only | yeast membranes, quenched prenylated peptide cleavage fluorescence | AID 2563, 2010 | actives 0.27% (n = 290,000) | CAAX prenyl protease 2 (Saccharomyces cerevisiae (strain ATCC 204508 / S288c)), Q03530;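 active = fall in fluorescence gain of 50% or more versus controls, with final raw signal at or below 3038400; inconclusive = same 50% fall but final raw signal above 3038400; inactive = fall in fluorescence gain under 50%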;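 note: plate controls were neutral control wells for no effect and wells lacking membranes for full effect; tested at 10 µM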
Target sequence (Q03530 whole entry, looked up): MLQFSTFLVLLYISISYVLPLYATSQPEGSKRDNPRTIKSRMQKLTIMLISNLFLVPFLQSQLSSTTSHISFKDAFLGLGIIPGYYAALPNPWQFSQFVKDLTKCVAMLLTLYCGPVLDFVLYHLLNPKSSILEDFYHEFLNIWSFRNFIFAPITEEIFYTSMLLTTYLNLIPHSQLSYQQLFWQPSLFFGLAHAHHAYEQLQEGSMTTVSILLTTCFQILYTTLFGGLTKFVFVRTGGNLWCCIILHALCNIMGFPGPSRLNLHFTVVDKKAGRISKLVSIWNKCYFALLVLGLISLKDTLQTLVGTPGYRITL
Env fusion inh = inhibitors of HIV-1 Env-driven cell-cell fusion, primary screen, HeLa-JRFL effector, CEM21 target cells, luciferase | inhibition, % at 12.3 µM | actives 1.1% (n = 360,000);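 active = mean replicate inhibition score of at least 50 and every replicate individually at or above 50; inconclusive = only one of the two criteria met; inactive = mean below 50 and not all replicates reaching 50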;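 note: 0% = plate neutral controls and 100% = maraviroc near 300 nM; one replicate is shown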
PABP FP inh = PABP poly(A) RNA binding inhibitors, primary screen, biochemical, fluorescence polarization, uHTS; inhibition, % at 35 µM; actives 1% (n = 290,000);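 active = 50% or more with normal probe brightness, or confirmed in later tests; inconclusive = above 50% with abnormal brightness, or retests that disagree; inactive = below 50% or failed in later tests; about a fifth of its hits are not listed in these tables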;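 note: calls also rest on retests at 20 µM and on dose response follow-up; controls were probe without protein and protein plus probe with vehicle; some compounds called inactive have numbers as strong as hits; many hits fall short of the cut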
CSC inhib = cancer stem cell viability inhibitors, primary screen, luminescence. cancer stem cell-like cells viability. inhibition, % at 7.5 µM. actives 1.1% (n = 300,000);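 active = mean at 75% or more and at least half the replicates too; inconclusive = mean and replicates disagree; tested in HMLE shEcad cells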;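 note: 0% = median of negative and 100% = median of positive control wells; the first replicate is given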
MT1-MMP act inh = blockers of MT1-MMP proenzyme processing, primary screen, HT1080 RFP-PRO-GFP cells, GFP/RFP fluorescence | Matrix metalloproteinase-14 (Homo sapiens), P50281 | GFP/RFP ratio fluorescence, overnight; percent of plate control window, DMSO zero | GFP/RFP ratio change, % at 20 µM | actives 0.061% (n = 360,000) | AID 651647, 2012;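 active = GFP/RFP ratio change of at least 30% with cell ATP level not reduced by more than half and red fluorescence within 50% of control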; note: strong numbers were not always called active
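Assay system: HT1080 cells carrying an RFP-PRO-GFP reporter | Dosing: Single dose of 20 µM compound, 1% DMSO final | Incubation: Cells overnight before dosing, compound overnight, 37 °C, 5% CO2 | Evaluation: GFP/RFP fluorescence ratio | Control set: DMSO and RFP-L50D-GFP cell wells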
Yeast UUG start = modulators of yeast start codon fidelity, primary screen, whole organism, S. cerevisiae, single point, plate reader. actives 0.13% (n = 350,000). activity score, % at 18.7 µM. AID 602363, 2012. S. cerevisiae UUG-firefly luciferase reporter, luminescence/redox ratio;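 active = replicate mean at a twofold rise or more, about +100% in these data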;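 note: firefly luciferase made from a UUG start codon reports start codon fidelity; reporter light over untreated wells divided by growth signal over untreated wells; some hits fall short of that in this replicate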
MT1-MMP act inh RFP = also measured in MT1-MMP act inh; calls as there; RFP signal change, %; measured here: RFP expression control read;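 0 = vehicle wells; hits needed this value within 50% of zero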
An asterisk follows results filed as active; i = inactive; ? = inconclusive; nt = not tested or not shown; & = joins results of further samples.

Each structure is followed by: MT1-MMP act inh, eIF4H inh, MT1-MMP act inh RFP, CSC inhib, PABP FP inh, Yeast UUG start, Env fusion inh, Rce1 inhib
CSc1nc(C)c2c(n1)N(c1ccc(F)cc1)CC2
    3, -2, 1, 4, 3, nt, nt, i
CNc1ncnc2c1ncn2[C@H]1CN(Cc2ccc(OC)cc2)C[C@@H](CO)O1
    7, nt, -2, nt, nt, -10, -11, nt
OC(Cc1nc2ccccc2[nH]1)c1ccccc1Cl (stereo unspecified)
    0, 1, 2, -5, 14, -17, nt, i
COc1ccc(CNC(=O)C2CCC(CNS(=O)(=O)c3cccc4nsnc34)CC2)cc1 (stereo unspecified)
    -1, -7, -5, -6, 1, 1, -4, i
COc1ccc(-c2csc(NC(=O)Cc3cccc4ccccc34)c2C(=O)O)cc1
    8, 5, 4, nt, 2, nt, 17, i
CC(OC(=O)c1ccc(Br)o1)C(=O)NCC1CCCCC1 (stereo unspecified)
    3, nt, 3, -5, nt, -17, nt, nt
O=C(CCCn1c(=S)[nH]c2cc3c(cc2c1=O)OCO3)NC1CC1
    7, 2, 3, -6, -5, -25, 0, i
O=C(NC1CCCCCCC1)c1c(Cl)cccc1Cl
    3, nt, 2, 2, nt, nt, 10, nt
CN(CC(=O)Nc1cccc(F)c1)CC(=O)Nc1ccccc1-c1ccccc1
    5, nt, -5, -24, nt, nt, 9, nt
COc1cc(C)ccc1OCc1cc(C(=O)N(Cc2nccn2C)C(C)C)no1
    1, -14, 3, 4, 15, -14, -73, i
CC(Oc1ccccc1F)C(=O)NNC(=O)c1ccc(-n2cncn2)c([N+](=O)[O-])c1 (stereo unspecified)
    1, nt, -1, nt, nt, -7, 2, nt
Cc1cccc(NC(=O)c2cccc(S(=O)(=O)N3CCCCC3)c2)c1
    2, -6, -7, nt, 19, 5, 6, i
O=C(NCc1ccccc1)c1onc(CSc2ccccc2)c1C(=O)NCC1CC1
    -5, -4, -11, 17, 3, -9, -74, i
CCN(CC(=O)Nc1ccc(NC(C)=O)cc1)C(=O)c1cccc(N2C(=O)c3ccccc3C2=O)c1
    0, nt, 0, nt, nt, -42, 0, nt
Cc1ccccc1NC(=O)c1cccc(S(C)(=O)=O)c1
    -3, -1, 3, 2, -5, nt, -5, i
CC(CN1CCCC1)OC(=O)c1cccc(F)c1 (stereo unspecified)
    0, -10, 1, 0, 8, -28, -20, i
COc1ccc(N2CCC(CNC(=S)Nc3ccc(C)cc3C)C2)cc1 (stereo unspecified)
    0, -8, 2, 4, -2, nt, 5, i
CC1(C(=O)NS(=O)(=O)C2CC2)CCN(C(=O)c2c(F)cccc2F)C1 (stereo unspecified)
    2, nt, 0, nt, nt, -9, -5, nt
CCOc1ccc(S(=O)(=O)N(C)c2ccc(OCC(=O)N3CCOCC3)cc2)cc1
    -3, -2, -1, 8, 8, -20, -3, i
COC(=O)c1ccc(N/C(=N/S(=O)(=O)c2ccccc2)c2ccccc2)cc1
    -6, -18, -6, -21, 39, nt, 1, i
CC(=O)C1=NOC2C(=O)N(c3ccccc3)C(=O)C12 (stereo unspecified)
    -1, -5, 1, -6, 1, -3, -12, i
COc1ccc(Br)cc1/C=C(\C(=O)O)c1ccc(S(=O)(=O)N2CCCCC2)s1
    3, nt, 0, nt, nt, -3, 11, nt
O=C(NCc1ccco1)c1ccc2c(c1)S(=O)(=O)c1ccccc1C2=O
    3, nt, 3, -1, nt, -16, 6, i
O=C(CSc1nnc(-c2n[nH]c3ccccc23)n1-c1ccccc1)Nc1cccc(Cl)c1
    5, -9, -1, 6, 0, nt, 70*, i
COc1ccc(-c2csc(NC(=O)c3c(C)noc3C)n2)cc1
    4, nt, -10, 4, nt, -14, -14, nt
COC(=O)c1ccc(COC(=O)CNS(=O)(=O)c2ccccc2)cc1
    0, 0, 3, nt, 1, 3, 7, i
O=C(CCl)NNc1cccc(Cl)n1
    0, -4, 0, -1, 2, -18, nt, i
CC1CCN(C(=O)Cn2c3ccccc3c3nc4n(c(=O)c32)CCCS4)CC1
    -5, nt, -3, -4, nt, -7, 11, i
CSc1ccccc1OCc1cc(C(=O)N2CCN(C3CCCC3)C(=O)C2)no1
    -2, -15, -4, -9, 0, 20, nt, i
Cc1ccc(S(=O)(=O)N2CCN(C(=O)c3cc(C4CC4)nn3-c3ccccc3)CC2)cc1
    -2, nt, -4, nt, nt, -13, -54, nt
CCCn1nc(C(=O)Nc2ccc3c(c2)OCO3)c2ccccc2c1=O
    -6, nt, 0, 4, nt, -6, nt, nt
O=C(NCc1ccc2c(c1)OCO2)c1ccccc1
    -1, 5, 3, 2, -2, nt, 12, i
CS(=O)(=O)Nc1ccccc1C(=O)N1CCCC1
    0, 0, 5, -11, -9, 20, nt, i
COCCNC(=O)C1(C)CCCN(C(=O)c2ccc(F)c(Cl)c2)C1 (stereo unspecified)
    0, nt, 5, nt, nt, -7, 14, nt
Cc1cc(C)nc(SCc2ccc(C(=O)N/N=C/c3ccco3)cc2)n1
    -1, 44, -1, -24, -1, nt, 12, i
COCCNC(=O)CCC1CCN(C/C=C/c2ccccc2OC)CC1
    0, 4, 0, -1, 0, -9, 1, i
Nc1ccccc1C#Cc1ccccc1
    -12, -6, -7, 30, 8, -12, -115, i
CC(C)(C)c1cc(NC(=O)C2CCCO2)no1 (stereo unspecified)
    5, 3, 5, 25, -2, -4, nt, i
CC(C)(C)c1ccc(OCCC(=O)OCC(=O)N2c3ccccc3NC(=O)C2(C)C)cc1
    3, nt, 2, -1, nt, 14, -28, i
Cc1cc(C(=O)O)ccc1-c1ccc(/C=C2\NC(=O)N(Cc3ccc(F)cc3)C2=O)o1
    -2, 81*, -5, 6, 68*, nt, -2, i
CCOP(=O)(c1ccccc1)C(O)c1ccc(F)cc1 (stereo unspecified)
    6, -14, 4, -10, 3, nt, -1, i
O=C1C2C3C=CC(C3)C2C(=O)N1Nc1c(Cl)cc(Cl)cc1Cl (stereo unspecified)
    3, 2, 3, 9, 1, nt, 11, i
Fc1ccc(-c2n[nH]c(=S)n2-c2ccc3c(c2)OCCO3)cc1
    5, 10, -1, -9, 2, nt, -12, i
Cc1ccc(S(=O)(=O)N/N=c2\oc3ccccc3cc2C(=O)Nc2cccc(C)c2)cc1
    nt, 7, nt, -7, -8, nt, nt, i
COc1cccc(NC(=O)C2CCN(Cc3cnn(-c4ccccc4)c3-n3cccc3)CC2)c1
    6, 5, -10, -7, -10, -9, -14, i
C=C(C)c1cccc(C(C)(C)NC(=O)NC(c2ccccc2)c2ccc(OC)cc2)c1 (stereo unspecified)
    -3, -3, -3, 34, -10, nt, -23, i
COc1ccc(CNC(=O)c2cc3c(=O)n4ccccc4nc3n(Cc3cccnc3)c2=N)cc1
    -5, 7, 1, 10, 9, 1&-9, -24, i
NS(=O)(=O)c1ccc(NCc2cnc3ccccc3c2)cc1
    2, nt, -3, nt, nt, -2, 20, nt
COCC1CCN(C(=O)c2ccc3oc(C(C)C)nc3c2)C1 (stereo unspecified)
    3, nt, 5, nt, nt, -17, -8, nt
COc1ccc(Cl)cc1N1C(=O)[C@@H]2C(c3cccc(OC)c3OC)=NO[C@@H]2C1=O
    6, -9, 3, -16, -2, -14, -19, i

Later entries:
Each structure is followed by: MT1-MMP act inh, eIF4H inh, MT1-MMP act inh RFP, CSC inhib, PABP FP inh, Yeast UUG start, Env fusion inh, Rce1 inhib
Cc1ccc(S(=O)(=O)N(CC(O)CN2CCOCC2)c2cc(Cl)ccc2Cl)cc1 (stereo unspecified)
    -2, -8, 3, 6, -9, -6, nt, i
CCOC(=O)c1nc(Nc2ccc(C(C)=O)cc2)c2ccccc2n1
    5, -5, -2, 2, 4, -20, 5, i
Cc1ccc(-c2ccc(/C=C/C(=O)c3ccccc3)o2)cc1
    -10, 26, 9, 49, -1, -17, 3, i
OCC[C@H]1C[C@H](O)[C@@H](O)[C@]2(Cc3ccccc3CCO2)O1
    -1, nt, 2, 1, nt, -12, -14, nt
O=C(CSc1nnc(-c2ccccc2)n1-c1ccccc1)c1ccc[nH]1
    3, 9, 2, 8, -10, nt, 10, i
C=CCn1c(SCc2nc3ccccc3nc2C)nnc1-c1ccoc1C
    0, -5, 1, 1, 2, -11, -6, i
O=C(COc1ccc(Cl)cc1Cl)NC(=S)Nc1ccccc1C(=O)O
    nt, -4, nt, -5, 14, nt, nt, i
C/C=C/C(=O)Nc1cccc(C2=NOC3(C2)C[C@@H](C(N)=O)N(C(=O)c2cc([N+](=O)[O-])cc([N+](=O)[O-])c2)C3)c1 (stereo partly specified)
    6, -4, 8, 3, -5, 23, -9, i
C=CC[C@H](CC(=O)N(CCO)Cc1ccccc1)C(=O)N[C@@H](COC(=O)[C@@H](CC=C)Cc1ccc(F)cc1)Cc1ccccc1
    -37, nt, -33, nt, nt, -14, 43, nt
O=C(CS(=O)(=O)Cc1ccccc1)Nc1ccc(Br)cc1F
    -2, -3, 0, -4, 9, -18, -2, i
O=C(CCc1nnc(C2CCCCC2)o1)N1CCN(C2CCCCC2)CC1
    -2, 12, -2, 1, -6, nt, -15, i
O=C(/C=C/c1cccc([N+](=O)[O-])c1)N1CCN(S(=O)(=O)c2cccs2)CC1
    -1, -7, 0, -5, 7, nt, -1, i
O=C(Oc1ccc2c(=O)c(Cl)coc2c1)c1cccnc1
    3, 1, 6, -7, 4, nt, -10, i
COc1ccc(/C=N/NC(=O)c2ccc3ccccc3c2)cc1OS(=O)(=O)c1ccc(NC(C)=O)cc1
    7, -12, -11, nt, -1, -11, nt, i
COC(=O)C1=CN(Cc2cccs2)C=C(C(=O)OC)C1c1cccc(Cl)c1
    -2, -3, -13, 29, 1, 1, 8, i
CCc1nc(SCC(=O)Nc2ccc(F)cc2)c2c(=O)n(C)c(=O)n(C)c2n1
    -2, -21, -5, -7, -2, -17, nt, i
O=C(NCc1ccccc1Cl)c1cccc(OC2CCN(C(=O)C3CC3)CC2)c1
    10, 0, -21, -15, 2, 24, 24, i
C[C@@H](CO)NC(=O)c1nc[nH]c1C(=O)N[C@H](C)c1ccccc1
    2, nt, 2, nt, nt, -11, -8, nt
CCCc1nc2oc(C(=O)c3ccccc3)c(N)c2c2c1COC(C)(C)C2
    1, -2, 2, 17, 5, -6, nt, i
CCCC(=O)Nc1ccc(C=C(C(C)=O)C(C)=O)cc1
    -3, 5, -1, -4, 0, -20, -7, i
O=C1CN(c2nnnn2-c2ccccc2)CCN1
    0, 6, 7, -4, 15, -5, nt, nt
CCOC(=O)c1sc(N)c(C#N)c1COC(=O)CNC(=O)c1cc(OC)c(OC)c(OC)c1
    -34, ?, 8, 12, ?, -20, 14, i
COCCN1C(=O)c2oc3cc(C)c(C)cc3c(=O)c2C1c1cccc(O)c1 (stereo unspecified)
    -4, nt, -3, -9, nt, 2, -49, i
Cc1csc(NC(=O)C2CCCO2)n1 (stereo unspecified)
    2, -4, 7, -5, 2, -10, -18, i
O=C(Nc1cccc(Cl)c1)N1CCC(CO)(CCOc2ccccc2)CC1
    1, -7, 3, 13, 4, nt, -6, i
Cc1cnc(NC(=O)Cc2cccs2)s1
    -6, -1, -1, -11, 10, nt, -15, i
Cc1ccc(S(=O)(=O)N/N=C\c2ccc([N+](=O)[O-])o2)cc1
    0, -8, -2, 6, 21, -5, nt, i
CCN(CC)C(=O)CC1(c2ccccc2OC)CCOC(C(C)C)C1 (stereo unspecified)
    -2, 3, 4, -16, 10, 5, -92, i
